Screening results deposited in PubChem BioAssay by several laboratories.
T cruzi repl – inhibitors of intracellular T. cruzi growth, primary screen, luminescence, NIH3T3 host cells | 1.4% of 300,000 active | inhibition, % (concentration not given with the values) | AID 1885, 2009 | T. cruzi beta-gal in NIH3T3, 90 h;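 active = mean inhibition across valid replicates above about 55%, limit read from the data; inconclusive = mean below that limit but half or more replicates reach it; inactive = mean below it, under half of replicates reach it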;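 note: signal also drops with host cell toxicity which is not excluded here; 0% = plate median of DMSO wells and 100% = zero luminescence signal; higher percent means less beta-gal luminescence so fewer parasites; stock transfer was 50 nL into about 50 µL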
LANA-H2A inh – blockers of LANA interaction with H2A/H2B – biochemical, FP readout, HTS, primary screen; 0.6% of 320,000 active; cell-free LANA-H2A/H2B peptide, fluorescence polarization; AID 2629, 2010; inhibition, % (test concentration not listed); Protein LANA1 (Human herpesvirus 8 type P (isolate GK18)), Q9QR71; in the data active = inhibition mostly above about 10%, no sharp cut-off; inactive = mostly below about 6.7%;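 note: stock transfer was 7.5 nL into about 10 µL; 0% = median of vehicle wells and 100% = median of positive control wells; one replicate is shown; the record names a cut of 25% in any replicate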
Target sequence (Q9QR71 whole entry, looked up): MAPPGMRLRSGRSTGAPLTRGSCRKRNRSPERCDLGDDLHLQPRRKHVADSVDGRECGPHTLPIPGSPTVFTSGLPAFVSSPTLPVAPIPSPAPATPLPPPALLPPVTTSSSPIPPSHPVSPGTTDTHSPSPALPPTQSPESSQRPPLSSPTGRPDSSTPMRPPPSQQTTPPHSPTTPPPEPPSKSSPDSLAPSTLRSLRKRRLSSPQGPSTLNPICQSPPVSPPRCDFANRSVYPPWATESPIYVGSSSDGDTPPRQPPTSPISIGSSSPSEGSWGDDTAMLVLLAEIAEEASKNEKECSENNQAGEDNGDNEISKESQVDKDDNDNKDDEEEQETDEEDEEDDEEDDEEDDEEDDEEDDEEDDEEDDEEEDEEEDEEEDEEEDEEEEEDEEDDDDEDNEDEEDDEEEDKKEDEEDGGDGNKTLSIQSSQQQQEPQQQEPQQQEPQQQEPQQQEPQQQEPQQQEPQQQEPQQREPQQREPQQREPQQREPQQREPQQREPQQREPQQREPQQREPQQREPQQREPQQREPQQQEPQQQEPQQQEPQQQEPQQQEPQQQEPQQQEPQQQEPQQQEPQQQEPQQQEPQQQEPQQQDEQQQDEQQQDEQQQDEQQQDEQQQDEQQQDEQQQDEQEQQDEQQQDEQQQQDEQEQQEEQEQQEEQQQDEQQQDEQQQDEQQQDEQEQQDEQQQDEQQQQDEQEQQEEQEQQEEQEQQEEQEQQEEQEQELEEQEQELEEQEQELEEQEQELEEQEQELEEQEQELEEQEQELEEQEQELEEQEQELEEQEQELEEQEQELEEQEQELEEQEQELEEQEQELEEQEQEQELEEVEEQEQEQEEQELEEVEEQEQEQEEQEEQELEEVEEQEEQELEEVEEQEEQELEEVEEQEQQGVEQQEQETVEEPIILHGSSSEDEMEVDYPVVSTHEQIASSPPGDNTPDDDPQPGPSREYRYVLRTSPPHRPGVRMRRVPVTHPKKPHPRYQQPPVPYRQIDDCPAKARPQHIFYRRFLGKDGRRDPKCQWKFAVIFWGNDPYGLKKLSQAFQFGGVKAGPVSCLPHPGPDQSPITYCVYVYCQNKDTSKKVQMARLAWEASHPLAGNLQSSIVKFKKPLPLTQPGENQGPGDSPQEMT
Beta apoptosis – inhibitors of cytokine-induced beta cell apoptosis, primary screen, luminescence. INS-1E cytokine-induced death, ATP luminescence, 48 h; percent of positive-control rescue, neutral wells zero. protection from apoptosis, % (test concentration not listed). 0.8% of 300,000 active;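 active = all replicates at 75% or more, or half of them and the mean; inconclusive = half reach 75% but not the mean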;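 note: 0% = cytokine-treated negative control wells and 100% = positive control rescue; higher means more ATP so stronger rescue from cytokine killing; wells of about 40 µL received 100 nL stock; the first replicate is given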
Calb FLC – C. albicans growth inhibition with fluconazole, primary screen, CaCi-2 strain, Alamar Blue fluorescence | growth inhibition, % (concentration not given with the values) | 0.57% of 300,000 active | C. albicans CaCi-2 (fluconazole-resistant clinical isolate) + fluconazole, 48 h;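 active = most replicates above 75%; inconclusive = exactly half above 75%; inactive = most below 75%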;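 note: all wells also contain fluconazole at 8 µg/ml as a sub-toxic cotreatment; 0% = median of DMSO wells and 100% = median of geldanamycin control wells; wells of about 8 µL received 7.5 nL stock; the first replicate is given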
A1 inh – caspase 3/7 activation in MEF A1-2A-BIM cells, primary screen, A1 inhibitor project, cell-based, luminescence, HTS; Caspase-Glo 3/7 luminescence, 3 h; percent of clofoctol response, vehicle zero; caspase activation, % (test concentration not listed); 0.066% of 330,000 active;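 active = over half of replicate activation scores above 10%, or exactly half above 10 with the replicate mean above 10; inconclusive = replicate mean below 10 yet half the replicates above 10; inactive = over half of replicates below 10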;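 note: wells of about 30 µL received 50 nL stock; many hits fall short of the cut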
AF4-AF9 inh – inhibitors of AF4 peptide binding to AF9, primary screen, biochemical, AlphaScreen, biotin-AF4 peptide, FLAG-AF9, single point; inhibition, % at 10 µM; 0.47% of 350,000 active; AID 651704, 2012;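 active = every replicate reaching a set inhibition limit, whatever the replicate mean, cut at about 25% in these data; inconclusive = mean inhibition reaches that limit but some replicates miss it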;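 note: 0% = plate neutral control median and 100% = total signal loss; the record names both 10 and 1 µM as test concentration; the first replicate is given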
RanGTP-Impb inh – inhibitors of RanGTP-importin-beta interaction, primary screen, biochemical, FRET, CFP-Ran, YFP-importin-beta, homogeneous. inhibition, % (test concentration not listed). Ran GTPase (GTP-bound) - importin-beta complex. cell-free CFP-Ran/YFP-importin-beta FRET ratio. 1.1% of 300,000 active;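 active = most replicates above 15%; inconclusive = exactly half above 15%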;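 note: 0% = DMSO wells and 100% = Ran loaded with GDP instead of GTP; wells of about 40 µL received 100 nL stock; the first replicate is given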
Vif A3G – inhibitors of Vif binding to APOBEC3G peptide, primary screen, biochemical, TR-FRET, GST-Vif 1-94, biotin-A3G peptide, dose response retest (AID 1117319); TR-FRET GST-Vif / biotin-A3G peptide binding; higher % means a stronger effect; test concentration not given here; strong numbers were not always called active; 0.57% of 260,000 active; Virion infectivity factor (Human immunodeficiency virus type 1 group M subtype B (isolate …; inhibition, %; hits with a dose series show IC50 in µM;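 active = above the screen mean plus three standard deviations and confirmed in dose response; inconclusive = results disagree or hit not tested in dose response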;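 note: Vif residues 1-94 fused to GST binding biotinylated APOBEC3G peptide 110-148; 0% = full assay without inhibitor and 100% = GST in place of GST-Vif; retest series ran down from 100 µM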
Numbers without * were called inactive; ? = inconclusive; nt = not tested or not shown. Hits appear at their usual frequency. About 4.3% of those tested had a hit in this group.

no.	SMILES	T cruzi repl	LANA-H2A inh	Beta apoptosis	Calb FLC	A1 inh	AF4-AF9 inh	RanGTP-Impb inh	Vif A3G
1	O=C(O)c1ccc(/C=N/O)cc1	-9.5	3.6	-9.9	3.9	-0.1	nt	1.5	-4.2%
2	O=C(Nc1nc(-c2ccccc2)cs1)c1ccc(N2CCOCC2)c([N+](=O)[O-])c1	55.2*	-2.5	5.0	13.1	-0.8	nt	1.9	17.9%
3	CCCCC(C(=O)O)C(C)CC(=O)Nc1cccc(C(=O)O)c1 (stereo not given)	-19.4	1.7	-1.1	-4.7	0.8	nt	8.1	-0.6%
4	CCN(CC)C(=O)[C@H]1CC(CC(=O)NCCCN(C)C)C(=O)N2CCc3c([nH]c4ccccc34)[C@]12C (stereo not given in full)	nt	4.3	-2.0	nt	1.0	-3.0	nt	-3.6%
5	COc1cc(NC(=O)COC(=O)C=C(C)C)c(C)cc1[N+](=O)[O-]	0.9	1.1	-5.3	-5.9	0.1	1.0	1.3	10.7%
6	O=C(NNS(=O)(=O)c1ccccc1[N+](=O)[O-])c1cccc(Br)c1	-9.6	-2.5	-6.8	52.4	-0.2	-0.9	2.6	nt
7	COc1ccc(C(=O)Nc2nnc(CCS(=O)(=O)c3ccc(C)cc3)s2)cc1	9.8	-1.5	-0.3	7.4	-0.3	-1.5	-1.0	-6.2%
8	Cc1cc(C(=O)NC(C)C2CCCO2)c(C)o1 (stereo not given)	-5.7	4.6	-1.4	-7.4	0.7	-8.0	-3.3	11.0%
9	NS(=O)(=O)c1ccc2c(c1)oc(=O)c1cc(S(N)(=O)=O)ccc12	-6.3	-6.5	nt	3.0	-0.4	-0.2	-5.5	7.4%
10	OCCN(CCO)CC(O)COc1ccc(C23CC4CC(CC(C4)C2)C3)cc1 (stereo not given)	6.7	1.1	0.0	-58.1	1.0	nt	?	2.8%
11	CCOC(=O)C1CCN(C(=O)CCc2c(C)nc3cc(-c4ccc(OC)cc4OC)nn3c2C)CC1	15.1	2.1	-8.6	-8.1	0.9	-2.0	4.9	0.2%
12	COc1ccccc1CN(C(=O)CCl)C(C(=O)NC1CCCCC1)c1ccncc1 (stereo not given)	nt	-368.2	-1.1	nt	0.3	nt	nt	31.4%
13	COc1ccc(CCNC(=O)C2CCN(S(=O)(=O)N3CCOCC3)CC2)cc1OC	-6.1	3.3	3.9	5.7	0.4	nt	?	2.6%
14	CC(=O)N1CCOCCOCCN(C(C)=O)CCOCC1	-9.6	-4.6	-3.0	-12.7	0.4	1.3	-0.8	18.2%
15	CCN1C(=O)[C@@H]2[C@H](C1=O)[C@@H]1C(=O)Nc3ccccc3C(=O)N1[C@@H]2c1ccccc1	-19.4	1.2	-12.0	2.3	0.7	-2.6	1.3	nt
16	CCOc1ccc2nc(NC(=O)C3CCN(C(=O)c4ccco4)CC3)sc2c1	-8.2	-2.8	-0.2	-1.9	0.0	5.2	-0.2	-5.0%
17	O=C(O)/C=C/c1ccccc1[N+](=O)[O-]	-10.9	0.3	0.3	-5.0	-0.1	-0.5	2.6	-6.8%
18	COc1cccc(CN2C(=O)CCC2(C)C(=O)NC2CCCCCC2)c1 (stereo not given)	4.3	4.9	-1.7	-17.2	-0.8	nt	2.3	-4.1%
19	CC(C)Cc1cc(C(=O)N2CCC(N3CCC(C(=O)NC4CC4)CC3)CC2)n[nH]1	-5.7	2.5	nt	-12.3	0.2	-1.6	-0.9	11.7%
20	Clc1cccc(Oc2cnc3ccccc3n2)c1	-1.0	0.9	-0.5	16.9	0.8	nt	-1.2	0.1%

no.	SMILES	T cruzi repl	LANA-H2A inh	Beta apoptosis	Calb FLC	A1 inh	AF4-AF9 inh	RanGTP-Impb inh	Vif A3G
21	Cc1ccc([N+](=O)[O-])cc1S(=O)(=O)Nc1cccc(-c2ccc(N3CCCC3)nn2)c1	37.8	nt	7.4	17.2	-9.0	-2.0	2.4	3.8%
22	O=C(C[n+]1ccccc1)N/N=C/c1ccc(Br)cc1	nt	2.1	5.2	nt	0.4	2.2	nt	nt
23	O=C(NCCN1CCOCC1)c1cc2cc(Br)ccc2oc1=O	8.3	2.7	0.1	-5.7	0.8	nt	10.2	0.5%
24	CCn1nc(C)c(CNC(=O)CCc2nnc(Cc3c[nH]c4ccccc34)o2)c1C	-24.8	-1.1	-1.5	-31.0	0.6	1.1	-3.0	nt
25	CCn1cc(CN2CCCC(C(=O)c3ccc(-c4ccccc4)cc3)C2)cn1 (stereo not given)	65.0*	3.8	nt	?	-0.6	7.6	-5.1	-7.2%
26	O=C(O)c1ccc2c(=O)n3c(nc2c1)/C(=C/c1cccc(Cl)c1Cl)CC3	11.2	5.2	-0.4	14.9	-0.3	-1.8	-1.7	nt
27	CCOC(=O)c1ccc(NC(=O)CSc2nnc(CNc3ccc(C)cc3)n2C)cc1	9.8	-3.5	0.4	-26.0	1.5	nt	0.1	3.2%
28	CC(C)(C)NS(=O)(=O)c1ccc(NS(=O)(=O)c2ccc(F)cc2)cc1	-9.2	4.0	-3.5	-3.8	-0.4	nt	-4.7	1.3%
29	COC(=O)c1ccc(COc2ccc(/C=N/NC(=O)C(=O)Nc3ccc(OC)cc3)cc2OC)o1	-1.3	2.9	-6.0	1.0	0.4	-2.5	2.4	3.5%
30	CCCN(CC(=O)Nc1ccccc1C)C(=O)c1cn2ccccc2n1	nt	-27.6	-1.7	nt	-0.4	1.3	nt	0.8%
31	COc1ccc(Br)cc1/C=C/C(=O)Nc1ccc2ccccc2c1	40.9	-4.5	10.7	4.7	-0.1	8.0	-3.4	14.8%
32	COc1nnc(-c2ccc(C)c(S(=O)(=O)NCCO)c2)c2ccccc12	-0.6	1.2	1.3	-12.1	0.8	nt	0.8	6.0%
33	Cc1cccc(NC(=O)NCCN2CCCCC2)c1	4.0	0.7	-0.8	-3.6	-0.2	1.1	1.3	nt
34	O=C(c1ccc(N2CCOCC2)c([N+](=O)[O-])c1)N1CCCC(C(F)(F)F)C1 (stereo not given)	-2.8	-8.1	3.0	-3.2	-0.3	3.5	nt	nt
35	COc1ccc(/C=C2\N=C(SC)NC2=O)cc1	-7.1	4.0	-16.2	90.4*	-1.0	nt	-4.9	-1.2%
36	COc1ccc(C(=O)N[C@H](C(=O)NCCc2ccc3c(c2)OCCO3)C(C)C)cc1	nt	-1.6	-1.4	nt	0.0	-3.1	nt	nt
37	CC(C)(C)c1ccc(OCCC(=O)OCC(=O)NC2CC2)cc1	nt	-5.3	1.0	nt	-1.1	-4.1	nt	-3.8%
38	Cc1cc([N+](=O)[O-])ccc1NCc1ccccc1	-0.2	-9.7	nt	6.1	0.2	nt	4.0	-4.8%
39	CC1CCN(C(=O)CSc2ccc(-c3cccc([N+](=O)[O-])c3)nn2)CC1	12.6	-0.1	-3.4	-2.1	0.6	4.3	0.4	4.5%
40	CC(C)(C)C(=O)NC1CC2CCCC(C1)N2C(=O)Nc1ccccc1Cl (stereo not given)	-4.8	4.5	-6.6	-2.4	1.0	1.8	4.6	nt

no.	SMILES	T cruzi repl	LANA-H2A inh	Beta apoptosis	Calb FLC	A1 inh	AF4-AF9 inh	RanGTP-Impb inh	Vif A3G
41	Cc1ccc(C(=O)NCc2ccccc2)c(F)c1F	-3.0	4.7	-2.7	-6.5	-1.4	-0.4	?	nt
42	COC(=O)c1ccccc1NC(=O)CSc1ccccc1	0.4	-1.7	nt	-0.5	-2.3	nt	0.8	6.5%
43	Cc1cccc(-c2nc3c(s2)CCc2onc(-c4ccc(Br)cc4)c2-3)c1	3.9	0.1	-1.6	-6.6	0.2	-3.8	-0.4	nt
44	CC(C)(C)n1nnnc1C(c1cccs1)N1CCN(c2ccccc2)CC1 (stereo not given)	-7.0	-3.5	nt	?	1.2	nt	2.9	-0.8%
45	O=C1Nc2ccc(F)cc2C12Nc1ccccc1-c1nnc(SCc3ccccc3Cl)nc1O2 (stereo not given)	-8.8	5.3	-28.0	-0.9	-0.6	nt	2.9	5.3%
46	Cc1nc(N2CCN(c3ccc(Cl)cc3)CC2)[nH]c(=O)c1C	3.0	-5.7	-0.1	-6.1	-0.2	1.0	-5.0	nt
47	CC/C(=N\NC(=O)c1ccccc1Cl)c1ccc(Br)s1	3.6	0.2	1.5	0.4	-0.3	8.0	-3.1	5.5%
48	CC12CN3CC(C)(CN(C1)C3c1ccc(Cl)cc1Cl)C2O (stereo not given)	-7.4	5.4	nt	-3.9	-0.7	nt	2.4	-8.6%
49	CCOC(=O)c1[nH]c(C)c(C(=O)N2CCCC(Nc3ccc(C)c(C)c3)C2)c1C (stereo not given)	-2.0	-1.2	-2.7	9.7	0.0	4.7	-0.8	nt
50	N#Cc1c(N2CCCCC2)nc(N)c2c(N)nc3c(c12)CC(CCl)O3 (stereo not given)	16.7	-2.0	5.9	-16.7	0.0	-2.1	5.7	1.9%
51	COc1ccc(NC(=O)c2ccco2)cc1S(=O)(=O)N1CCOCC1	-10.5	0.2	-3.7	-0.1	1.3	0.0	?	32.0%
52	Cc1ccc([N+](=O)[O-])cc1S(=O)(=O)NCC1COc2ccccc2O1 (stereo not given)	5.1	2.1	-6.3	-2.8	0.0	4.1	2.3	nt
53	CCOc1ccc(NC(=O)CN(c2cc(C)cc(C)c2)S(=O)(=O)c2c(C)noc2C)cc1	18.3	-2.8	nt	-1.0	1.4	0.1	0.8	23.5%
54	COc1ccc(C(CC(=O)O)NC(=O)COc2ccccc2)cc1 (stereo not given)	-3.9	-3.5	-0.1	12.5	1.3	nt	-1.7	23.7%
55	CC(=O)c1ccc(NC(=O)COC(=O)C2CC3C=CC2C3)cc1 (stereo not given)	nt	1.3	3.1	nt	-0.2	1.3	nt	nt
56	COCCN(C(=O)c1ccco1)c1nc(-c2ccccc2)cs1	1.6	-1.5	-3.9	3.6	0.9	-4.5	5.7	nt
57	CCc1nc(SCc2nc3ccccc3[nH]2)c2oc3ccccc3c2n1	5.4	-1.2	9.3	14.3	0.3	nt	-2.7	8.6%
58	Cc1cccc(-c2c(NC(=O)c3ccco3)oc3ccc(Cl)cc3c2=O)c1	-5.1	1.7	2.2	10.1	-0.1	1.5	0.5	nt
59	CC(C)OC(=O)C(C)Nc1n[nH]c(=S)[nH]c1=O (stereo not given)	0.5	nt	nt	16.7	nt	-1.2	-1.4	-9.1%
